AID504770: growth inhibition of E. coli YBA685, primary screen, V. cholerae RctB inhibitors; z-score (no concentration beside the values); E. coli YBA685 rctB-dependent plasmid, OD600 growth, 3 h; hits give low values; AID 504770, 2011; actives 0.27% (n = 130,000);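 active means z-score under -2 on both plates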;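 further: wells of about 30 µL received 100 nL stock; score is relative to mean and SD of the test wells; the first replicate is given; strong numbers were not always called active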
Ba CapD inh: Bacillus anthracis CapD inhibitors, primary screen, biochemical, fluorescence intensity | purified CapD enzyme, fluorescence intensity read-out; hits give low values; some hits fall short of the stated cut | z-score (no concentration beside the values) | CapD gamma-glutamyltranspeptidase (Bacillus anthracis Ames Ancestor) | actives 0.23% (n = 140,000);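 active means z-score under -4 in either of two replicates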;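 further: stock transfer was 100 nL into about 40 µL; score is relative to mean and spread of the plate; one replicate is shown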
* marks the source's active call; other numbers are inactive results; . = not tested or not shown; & = joins results of further samples. An excerpt. The share of hits here may be higher or lower than overall.

| SMILES | AID504770 | Ba CapD inh |
| --- | --- | --- |
| CC(C)(C)C1CCc2c(sc3c2c(=O)n(-c2ccccc2)c2nnc(SCc4ccc(Cl)c(Cl)c4)n32)C1 (configuration not stated) | . | -0.375 |
| Cc1ccc(NC(=O)c2ccn(C(=O)Nc3cccc(Cl)c3)n2)cc1 | 1.6 | -0.245 |
| Cc1cc(Br)ccc1NC(=O)Cn1c(=O)c2ccccc2n(C)c1=O | . | 0.63 |
| CCOC(=O)c1cnc2cc(OC)ccc2c1Cl | -0.3 | 5.21 |
| CSc1nnc(CNC(=O)Cc2c(F)cccc2Cl)n1C | 0.95 | . |
| CCOC(=O)c1nnc(Cc2ccc(C)cc2)o1 | -0.7 | 0.205 |
| Cc1cc(O)c(C(=O)c2cccs2)c(=O)o1 | -1.65 | . |
| COc1ccc(OCCSc2nnc(-c3ccc(OC)cc3)o2)cc1 | 1.9 | . |
| CC(=O)Nc1nc2c(s1)CC(C)CC2 (configuration not stated) | 2.05 | 0.305 |
| Cc1conc1NC(=O)CNC(=O)C1CCCCC1 | -0.3 | -0.165 |
| CCC(CC)NS(=O)(=O)c1ccc(Br)cc1 | 0.4 | 0.185 |
| Cc1ccc(-c2csc3ncnc(NCc4ccco4)c23)cc1 | . | 0.23 |
| CCCCn1c(C)c(Cc2ccccc2)[nH]c1=O | 0.2 | . |
| O=S(=O)(CCc1ccccc1)/N=C/c1ccco1 | 0.25 | -0.57 |
| COC(Cn1cc2c(c1-c1ccccc1Br)c(=O)n(C)c(=O)n2C)OC | -0.9 | 1.02 |
| O=C(CN1C(=O)/C(=C/c2ccccc2F)Oc2ccccc21)N1CCCC1 | 0.95 | 0.125 |
| COc1cccc(NS(=O)(=O)c2cc(C(=O)N3CCN(c4ccc(F)cc4)CC3)ccc2NCc2ccc(F)cc2)c1 | . | 1.82 |
| CCCC(=O)Nc1nn2c(-c3ccc(OC)cc3)nnc2s1 | -0.2 | 0.33 |
| Cc1cc(C)nc(/N=C2\NC(=O)CN2c2cc(Cl)cc(Cl)c2)n1 | 2.2 | . |
| CCN(CC)Cc1cc(NC(C)=O)ccc1O | -0.85 | -0.045 |
| CCOc1cc(/C=C2/C(=O)ON=C2C)cc(Cl)c1OCc1ccc(F)cc1 | -1.15 | -0.235 |
| Cc1ccc(C)c(NC(=O)C2COc3ccccc3O2)c1 (configuration not stated) | . | -0.17 |
| Cc1cc(NC(=O)Cn2c(=O)n(CCCC(=O)NCc3ccc4c(c3)OCO4)c(=O)c3ccccc32)n[nH]1 | -0.6 | -0.615 |
| NC(=O)CNC(=O)c1cccs1 | 0.5 | -0.22 |
| N#CC1=C(SCc2ccccc2)NC(=O)C(C#N)C1c1ccccc1Cl (configuration not stated) | -0.1 | 3.02 |
| O=C(CCN1C(=O)CCC1=O)OCC1CCCN2CCCCC12 (configuration not stated) | -0.5 | -0.425 |
| CCn1c(=NC(=O)C(C)(C)C)sc2ccccc21 | -0.3 | . |
| Cc1nc2ccccc2nc1SCc1nc(N)nc(N2CCCCC2)n1 | 0.1 | . |
| CN(C)C(=O)Oc1ccc(OC(=O)N(C)C)cc1 | -0.9 | . |
| CCN(CC)CCCNC1CCCC1 | -0.4 | . |

One compound at a time (already shown):
`COc1ccc(OCCSc2nnc(-c3ccc(OC)cc3)o2)cc1` is entered as AID504770 = 1.9; Ba CapD inh = .
`Cc1ccc(NC(=O)c2ccn(C(=O)Nc3cccc(Cl)c3)n2)cc1` is entered as AID504770 = 1.6; Ba CapD inh = -0.245
`Cc1ccc(-c2csc3ncnc(NCc4ccco4)c23)cc1` is entered as AID504770 = .; Ba CapD inh = 0.23

Grouped by structure: the entries above containing a furan ring, fused or not
| SMILES | AID504770 | Ba CapD inh |
| --- | --- | --- |
| Cc1ccc(-c2csc3ncnc(NCc4ccco4)c23)cc1 | . | 0.23 |
| O=S(=O)(CCc1ccccc1)/N=C/c1ccco1 | 0.25 | -0.57 |

Additional compounds
| SMILES | AID504770 | Ba CapD inh |
| --- | --- | --- |
| CCOC(=O)c1noc(N)c1-c1ccccc1 | -0.05 | . |
| CCOc1ccc(OC(C)C(=O)NN)cc1 (configuration not stated) | -0.15 | . |
| O=c1cc(C(F)(F)F)[nH]c2c(Cl)cccc12 | . | 23 |
| CCc1cccc(NC(=O)COC(=O)Cc2cn3ccsc3n2)c1 | -0.65 | . |
| Cc1cc2cc(NS(=O)(=O)c3cccc(C(F)(F)F)c3)ccc2[nH]1 | . | -0.49 |
| COc1ccc(CCNc2ncnc3sccc23)cc1 | -0.55 | . |
| COc1ccc(-n2cc(-c3ccccc3)c3c(Nc4ccccc4)ncnc32)cc1 | -0.1 | 0.3 |
| CCOC(=O)c1ccc(NC(=O)c2cc3cc4c5c(c3oc2=N)CCCN5CCC4)cc1 | -0.2 | 0.44 |
| CCS/C=C/C#CC1(O)CCCCC1 | 0.7 | . |
| CCOc1ncccc1C(=O)OCc1ccccc1 | -0.5 | 0.195 |
| CCN(Cc1ccccc1)C(=O)/C=C/c1ccc(OC)cc1 | -0.6 | -0.695 |
| O=C(Nc1cccc(Cl)c1N1CCCCC1)c1ccc(Cl)c(Cl)c1 | . | 0.125 |
| COC(=O)c1cc2c(s1)-c1cc(Cl)ccc1S(=O)(=O)C2 | . | 20.4 |
| NC(=O)C1CCN(C(=O)C2C3C=CC(O3)C2C(=O)O)CC1 (configuration not stated) | -0.05 | . |
| COc1ccc(C2(CNC(=O)CC#N)CCCC2)cc1OC | . | -0.33 |
| COc1ccc(CCn2c(N)c(-c3nc4ccccc4[nH]3)c3nc(C#N)c(C#N)nc32)cc1OC | 0.35 | . |
| CN(Cc1cccnc1)C(=O)NC(c1ccccc1)c1ccc(Cl)cc1 (configuration not stated) | . | 0.085 |
| Brc1ccc(C2=Nn3c(nnc3-c3ccccc3)SC2)cc1 | . | -0.325 |
| Cn1nc(-c2ccc(Cl)cc2)cc1NC(=O)CSCC(=O)O | -0.3 | -1.4 |
| Cc1cc(N2C(=O)CSC2c2cc3c(cc2[N+](=O)[O-])OCO3)ccc1Br (configuration not stated) | . | 0.5 |
| COc1cc(/C=C(\NC(C)=O)C(=O)O)cc(OC)c1OC | -0.6 | -0.425 |
| COc1ccccc1C(=O)NCc1nnc(SCC(=O)N2N=C(c3cccs3)CC2c2ccc(C)cc2)n1C (configuration not stated) | . | 12.6 |
| Cc1ccc(Cl)cc1N1C(=O)C2C(c3ccccc3)OC3(C(=O)c4ccccc4C3=O)C2C1=O (configuration not stated) | . | -0.755 |
| COc1ccc(N2CCN(Cc3cn4c(C)cc(C)nc4n3)CC2)cc1 | -0.25 | . |
| COCCN1C(=O)CS/C1=C(/C#N)C(=O)NCc1ccco1 | -0.25 | . |
| Cc1ccc2c(c1)c(=O)c1ccccc1n2CC(=O)Nc1c(C)cc(Br)cc1C | . | 0.72 |
| CCC(C)NC(=O)C(C)n1nc(C)c2ccccc21 (configuration not stated) | -0.45 | -1.14 |
| COC(=O)C1C(=O)NC(SCC(=O)Nc2ccc(C(C)=O)cc2)=C(C#N)C1c1ccc(C(C)C)cc1 (configuration not stated) | . | -0.225 |
| CC(=O)c1cc(Cl)cc(Cl)c1OC(=O)c1cccc(C(F)(F)F)c1 | . | -0.61 |
| c1ccc2nc3c(nc2c1)[nH]c1ccccc13 | . | -0.375 |
| c1ccc(-c2nc3nc(-c4ccccc4)c(-c4ccccc4)n3nc2-c2ccccc2)cc1 | . | -0.095 |
| O=C(O)c1ccc(-c2ccc(O)c(F)c2)cc1 | 0.2 | 0.81 |
| O=C1Nc2cc(Cl)ccc2SC2CCCCC2O1 (configuration not stated) | -0.3 | -0.13 |
| Cc1ccc(NC(=O)/C=C2\SC(=O)NC2=O)cc1 | -0.15 | . |
| COc1ccc(C(=O)N2Cc3ccccc3CC2C(=O)NC(C)(C)C)cc1 (configuration not stated) | . | 0.43 |
| CCOC(=O)CSc1nc(N)c(C#N)c(-c2ccc(OCC)cc2)c1C#N | . | 0.555 |
| COC(=O)c1cc(C)sc1NC(=O)C1CC(=O)NN1Cc1ccccc1 (configuration not stated) | -0.35 | . |
| O=C(Cn1ccc2cc(S(=O)(=O)N3CCCCC3)ccc21)N1CCCCC1 | -0.3 | 0.915 |
| C=CCn1c(C)cc(C(=O)CSc2nnc3n2CCCCC3)c1C | -0.3 | . |
| CC12CCC(=O)N1C(C(=O)OCC(=O)Nc1sccc1C#N)CS2 (configuration not stated) | 0.5 | . |
| Cc1cc(C)cc(-n2cc3c(=O)n(C)c(=O)n(C)c3c2)c1 | -0.8 | 1 |
| CC1=C(C(=O)OCC2CCCO2)C(c2cc3c(cc2Br)OCO3)NC(=O)N1 (configuration not stated) | . | 0.07 |
| CS/C(=N\S(=O)(=O)c1ccc(C)cc1)N1CCN(C(=O)c2cccs2)CC1 | 0.3 | . |
| CNC(=S)NN=C1CCCC1 | . | -0.53 |
| OCCNc1ncnc2c1cnn2-c1ccccc1 | -0.4 | 0.33 |
| Cn1c(=O)n(CCc2ccccc2)c2ccccc21 | 1.85 | . |
| Cc1ccc(-c2csc3ncn(-n4c(C)ccc4C)c(=O)c23)cc1 | -0.3 | . |
| COc1cc(/C=c2/sc3nc4ccccc4n3c2=O)ccc1O | 1.7 | -0.375 |
| CCOC(=O)c1ccc(N2N=C(C(F)(F)F)/C(=C/c3ccc(N4CCOCC4)cc3)C2=O)cc1 | . | -0.195 |
| N#Cc1nc2c(S(=O)(=O)c3ccc(Cl)cc3)c(N)n(Nc3cccc(Cl)c3)c2nc1C#N | -2.55 | . |
| CCn1nc(C)c(NC(=O)c2cc(Br)ccc2Cl)c1C | 1.1 | -0.865 |
| c1ccc2c(c1)ncn2CCC1CCCCC1 | -0.8 | . |
| O=C(c1ccc(Br)cc1)N1Cc2ccccc2NC1=S | -0.15 | -0.28 |
| O=c1c2ccccc2cnn1Cc1ccccc1 | . | -0.04 |
| N#CC1=C(SCC(=O)Nc2ccc(Br)cc2)NC(=O)CC1c1ccc(Cl)cc1 (configuration not stated) | . | 0.945 |
| CCOC(=O)N1CCC(NC(=O)CS(=O)(=O)Cc2nc(-c3cccc(OC)c3)oc2C)CC1 | -0.55 | 0.62 |
| COc1cc(-c2n[nH]c(=S)n2-c2cccc(C(F)(F)F)c2)cc(OC)c1OC | . | 0.27 |
| CCN1CCN(/C=N/c2nc3c(s2)CCCC3)CC1 | -1.15 | . |
| N#Cc1c(-c2ccccc2)ccn2nc(-c3cccc(C(F)(F)F)c3)nc12 | . | 1.98 |
| CS(=O)(=NC(=O)c1cc(C(F)(F)F)cc(C(F)(F)F)c1)c1ccc(Cl)cc1 (configuration not stated) | . | -0.54 |

(next part)
| SMILES | AID504770 | Ba CapD inh |
| --- | --- | --- |
| Cc1nc2ccc(NC(=O)N3CCSCC3)cc2s1 | 1.9 | 12.8 |
| COc1cc(C(=O)N2N=C(c3ccccc3)CC2c2ccccc2)cc(OC)c1OC (configuration not stated) | . | 0.29 |
| CC1CCN(C(=O)c2ccc(NC(=O)C3CCCO3)cc2)CC1 (configuration not stated) | 0.65 | 0.72 |
| CC(C)Cn1c(SC(C)C(N)=O)nc2ccccc21 (configuration not stated) | 0.9 | . |
| CCOC(=O)CC(=O)Nc1ccc(C(=O)OCC)cc1 | -0.55 | -0.16 |
| CC1=C(CCN2CCN(C/C=C/c3ccccc3)CC2)C(C)(C)CCC1 | 0.05 | -0.3 |
| Cc1cc2cc(NS(=O)(=O)c3ccccc3S(C)(=O)=O)ccc2[nH]1 | . | -0.615 |
| N#C/C(=C/C1=Cc2ccccc2OC1)S(=O)(=O)c1ccccc1 | -0.4 | -0.48 |
| O=C(c1cccs1)c1coc2ccc(Cl)cc2c1=O | -0.05 | -0.525 |
| N#CCSc1ccc(-c2cccnc2)nn1 | -1.2 | . |
| COc1ccc2ccccc2c1/C=C1/N=C(c2ccc(Cl)c([N+](=O)[O-])c2)OC1=O | . | 0.745 |
| O=C(Cn1nnc(-c2ccccc2)n1)NC(=O)NCc1ccccc1 | -0.5 | . |
| CC(Sc1nnc(-c2cccc(Cl)c2)n1N)C(=O)NC1CCCCC1 (configuration not stated) | 2.3 | . |
| O=C(NCCCN1CCOCC1)C1CC(c2ccccc2O)=NO1 (configuration not stated) | -0.6 | . |
| COC(=O)c1cn(C(=O)c2ccccc2)c2ccccc12 | -0.7 | -0.665 |
| COc1ccc2c(c1)c1nc(SCC(C)C)n(CCO)c(=O)c1n2C | -0.6 | 29.6 |
| Cc1cc2cc(CNC(=O)c3ccc(S(=O)(=O)N4CCCC4)cc3)ccc2n1C | 0.15 | -0.64 |
| N#Cc1c(SCC(=O)N2CCOCC2)nsc1SCC(=O)N1CCOCC1 | -0.7 | -0.065 |
| COc1ccc(C2CC(c3ccc(Cl)c(Cl)c3)Nc3nc(N)nn32)cc1OC (configuration not stated) | -0.2 | 0.365 |
| O=C(O)c1cccc(I)c1 | -0.35 | . |
| CN1C(=O)N(C)C2(c3ccccc3)Nn3c(s/c(=C/c4ccc(Br)cc4)c3=O)=NC12c1ccccc1 (configuration not stated) | . | -0.285 |
| CON(C)C(=O)CCC(=O)N1CCN(c2nc(C)cc(C)n2)CC1 | . | 1.73 |
| CCOC(=O)C1=C(C)N=c2s/c(=C\c3ccc(OCC(=O)O)cc3)c(=O)n2C1c1ccccc1OC (configuration not stated) | . | -0.135 |
| Cc1nc(S(=O)(=O)NCc2ccc3c(c2)CCO3)cn1C | -0.3 | -0.005 |
| Clc1ccc(Nc2c3c(nc4ncnn24)CCC3)cc1 | -0.35 | -0.25 |
| Cc1cccc(CCOC(=O)NNC(=O)c2cc(Cl)ccc2Cl)c1 | . | -0.005&0.365 |
| C=CCn1c(CSc2nc(N)cc(N)n2)nnc1SCC(=O)NC1CCCCC1 | 0.6 | 0.285 |
